Screening data (PubChem)
gsp antagonist: gsp mutant antagonism. gsp-mutant cells, cAMP HTRF, 30 min; control for the full effect not named in the record. Potency, µM (highest dose often 76.9 µM), for the others: at the top dose activity change, negative = inhibition, most hits filed as inhibitors. AID 624288. hit rate 0.4% among 340,000; active = falling curve of any shape with a large fitted effect; inconclusive = falling curve, mostly with a smaller effect; inactive = flat or rising curve; cell line not stated here;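 also: intracellular cAMP measured with PDE inhibitor Ro 20-1724 present during compound exposure; potency is read from the fitted curve at half-maximal effect; % is scaled to controls: 0 for no effect and ±100 for the full control effect; nearly all actives have a fitted effect of over 65% in size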
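HTRF cAMP read-out (cAMP-d2 plus anti-cAMP antibody-K in lysis buffer, 30 min RT). Before lysis, cells are exposed to compounds with […] for 30 min at 37C in DPBS containing Ca/Mg, BSA and Tween 20.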
gsp ag: activates gsp, the McCune-Albright syndrome mutation; gsp mutant cells, cAMP HTRF, 30 min; control for the full effect not named in the record; Potency, µM (series often up to 76.9 µM), inactives show at the highest dose activation (cAMP increase), hits mostly activators; hit rate 0.13% among 340,000; active = well fitted activation curve with a large enough effect; inconclusive = small, poorly fitted or top-dose-only effect, or another doubt; inactive = no such curve, though single readings can be large or run the other way; cell line not stated here;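 also: phosphodiesterase inhibitor Ro 20-1724 added with compounds to block cAMP breakdown; potency is read from the fitted curve at half-maximal effect; nearly all actives have a fitted effect of over 60% in size; about a fifth of the inactives were tested at one dose only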
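Cells stably selected in G418 were plated at 2000/well, grown 16-24 hr, then given compounds in DMSO with the PDE inhibitor […] (300 uM solution added) for 30 min at 37C; cAMP was read by HTRF.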
ClpP mod: qHTS Assay for Activators of ClpP | ATP-dependent Clp protease proteolytic subunit (Bacillus subtilis (strain 168)), P80244 | purified B. subtilis ClpP, FRET peptide cleavage, 20 min | Potency, µM (titrated, usually from 57.5 µM), for inactives: at the top dose activity change, negative = active | hit rate 1.9% among 340,000 | AID 651965, 2013; active = well fitted falling curve with a large enough effect; inconclusive = small, poorly fitted or top-dose-only effect; inactive = no such curve, though single readings can be large or run the other way; also: potency is read from the fitted curve at half-maximal effect; the source files actives as falling curves though it sought activators and does not explain the sign; nearly all actives have a fitted effect of over 65% in size; many hits overshoot -100%
Target sequence (P80244 whole entry, looked up): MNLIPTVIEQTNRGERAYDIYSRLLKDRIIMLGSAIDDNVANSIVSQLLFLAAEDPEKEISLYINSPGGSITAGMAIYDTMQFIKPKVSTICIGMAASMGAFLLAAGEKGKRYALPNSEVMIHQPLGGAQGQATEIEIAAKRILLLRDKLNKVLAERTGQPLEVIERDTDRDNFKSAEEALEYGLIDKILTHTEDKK
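Purified B. subtilis ClpP, 10 microg/mL final in Tris/HCl pH8 with KCl, BSA, glycerol and Tween-20, cleaved an Abz/nitrotyrosine-quenched decapeptide. Fluorescence (ex 320, em 430) was read at 0 and 20 min at room temperature. Delta was normalized to 5.8 microM ADEP and DMSO/no-enzyme controls.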
TRPML1 blocker: inhibitors of human TRPML1 channel; TRPML1-inducible cells, Ca2+ dye fluorescence, FDSS; hits give low values; inhibition of EC80 agonist-evoked calcium signal; activity change, negative = inhibition, % (no concentration beside the values); hit rate 0.02% among 390,000; in the data active means activity change below about -50%; inconclusive means about -30% to -50%; inactive means above about -30%;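 also: stimulus is agonist 54-4 at its EC80 concentration; % is scaled to controls: 0 for no effect and ±100 for the full control effect; compound concentration not given in the record; the text of the record puts the active cut at -80%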
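Tet-induced TRPML1-DL cells loaded with Ca8 no-wash calcium dye were read kinetically on FDSS. Compound addition was followed by EC80 agonist 54-4 (4 uM final); inhibition was read over 110 s.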
Menin MLL FP FL: menin-MLL binding inhibition, fluorescein peptide; Fluorescence polarization, fluorescein-MLL peptide displacement from menin; FP activity change, % at 61.4 µM; 290,000 tested, under 10 active; AID 1766; inconclusive = falling polarisation curve, or a change in total fluorescence; inactive = total fluorescence flat and polarisation flat or rising; no compound was filed as active; the % refers to the polarisation; negative = inhibition;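 also: % of control where 0% means no effect; inhibitors lower the polarisation; unlabelled MLL peptide was the positive control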
Sfp PPTase inh: blocks B. subtilis Sfp PPTase activity. Potency, µM, inactives show max response, negative = inhibition, hits mostly inhibitors. Q9F4F7. Biochemical Sfp PPTase activity, qHTS. hit rate 3.5% among 310,000. AID 1490; active = well fitted inhibition curve with a large enough effect; inconclusive = small, poorly fitted or top-dose-only effect, or another doubt; inactive = no such curve, though single readings can be large or run the other way;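 also: the enzyme is Sfp with the accession as filed and its product quenches rhodamine fluorescence; potency is read from the fitted curve at half-maximal effect; 0% = enzyme reaction without inhibitor and -100% = no enzyme wells; top concentration of the series not given in the record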
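Fluorescence-quenching assay with 15 nM Sfp, 5 uM rhodamine-CoA and 12.5 uM BHQ-2-labelled ybbR peptide in pH 7.6 Hepes/MgCl2 buffer. Enzyme was pre-incubated with compound for 15 min at room temperature. Rate was taken from the 30-min fluorescence change (525/598 nm).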
TRPV1 potentiator: enhances activation of the human vanilloid receptor TRPV1; Q8NER1; AID 540277; potentiation, % at 8.33 µM; TRPV1-expressing cells, Fluo-8 calcium influx, capsaicin EC20 potentiation; host cell line not named in the record; control for the full effect not named in the record; hit rate 0.02% among 320,000; active means potentiation above 80%; inconclusive means 30% to 80%; inactive means below 30%; also: 0% is about no effect
Target sequence (Q8NER1 whole entry, looked up): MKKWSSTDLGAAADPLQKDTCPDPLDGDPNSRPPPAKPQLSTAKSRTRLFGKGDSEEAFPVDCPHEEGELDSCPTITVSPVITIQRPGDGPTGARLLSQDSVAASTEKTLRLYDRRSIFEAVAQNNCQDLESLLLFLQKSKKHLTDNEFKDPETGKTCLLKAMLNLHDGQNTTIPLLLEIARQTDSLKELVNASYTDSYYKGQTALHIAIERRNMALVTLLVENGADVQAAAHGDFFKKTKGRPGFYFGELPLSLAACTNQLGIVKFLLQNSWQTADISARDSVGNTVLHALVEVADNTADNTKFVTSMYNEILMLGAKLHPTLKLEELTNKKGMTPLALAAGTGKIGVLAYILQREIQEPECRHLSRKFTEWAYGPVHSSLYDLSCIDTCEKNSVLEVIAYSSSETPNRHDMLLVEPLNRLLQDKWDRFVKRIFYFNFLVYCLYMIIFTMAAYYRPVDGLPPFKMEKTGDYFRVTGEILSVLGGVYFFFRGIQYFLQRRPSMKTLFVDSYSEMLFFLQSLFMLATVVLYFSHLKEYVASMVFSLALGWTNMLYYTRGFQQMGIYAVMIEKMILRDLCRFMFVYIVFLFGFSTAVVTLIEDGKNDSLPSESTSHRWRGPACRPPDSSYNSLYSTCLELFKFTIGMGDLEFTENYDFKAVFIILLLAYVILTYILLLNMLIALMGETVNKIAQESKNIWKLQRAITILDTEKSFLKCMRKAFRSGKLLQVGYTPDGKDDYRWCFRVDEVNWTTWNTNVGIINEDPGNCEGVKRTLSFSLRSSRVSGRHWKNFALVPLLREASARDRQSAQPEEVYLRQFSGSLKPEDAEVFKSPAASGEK
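Fluo-8 calcium influx in TRPV1-expressing cells, kinetic read (ex 480/em 520 nm). Compound added and read 3 min for agonist activity, followed by capsaicin at EC20 final and 2 min further read for enhancement.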
* marks the source's active call; other numbers are inactive results; ? = inconclusive; . = not tested or not shown; [ ] = dose if it differs, or a comment.

SMILES	gsp antagonist	gsp ag	ClpP mod	TRPML1 blocker	Menin MLL FP FL	Sfp PPTase inh	TRPV1 potentiator
CCC(CCc1ccccn1)C(=O)c1ccccc1 (stereo not given)	-2%	-9%	0.5%	-3	.	.	.
CCOC(=O)C1(CC2CCCCO2)CCN(Cc2nc(C(C)C)cs2)CC1 (stereo not given)	-3%	-13%	-1.9%	-6	0.0	22%	5
COc1ccc2oc(=O)c(C(=O)N3CCN(c4ccccc4C)CC3)cc2c1	10%	-44%[inhibitor]	0.8%	-25	10	-8%	-2
CCC(=O)NC(=S)Nc1cccc(Cl)c1N1CCCCC1	12%	5%	0.8%	5	7.2	11%	17
Cc1ccc(-n2ccnc2SCC(=O)O)cc1C	1%	1%	-0.9%	.	3.2	12%	-15
CCN(CC(=O)NCc1cccs1)C(=O)/C=C/c1ccc(F)cc1	.	-44%[inhibitor]	1.0%	-6	.	.	.
COc1ccc(C2=NS(=O)(=O)N(C)C(C(=O)Nc3ccc4c(c3)OCO4)=C2)cc1	-12%	25%	-2.2%	-1	2.0	19%	-5
N#C/C(=C\c1ccc[nH]1)C(=O)Nc1ccccc1F	-4%	?	-2.4%	23	.	0%	-9
NS(=O)(=O)c1ccc(NC2(C(=O)O)CCCC2)cc1	16%	-4%	.	17	1.3	12%	6
Brc1ccc(CN2CCSCC2)cc1	-8%	9%	-0.7%	-13	2.5	-9%	5
C=CCn1c(SCC(=O)/C(C#N)=C(\C)N)nnc1C1CCCCC1	3%	-46%[inhibitor]	1.8%	-12	-4.0	11%	9
C=CCn1c(SCCOC)nc2c1c(=O)[nH]c(=O)n2C	8%	?	2.1%	11	4.8	?	-9
CCOc1ccc(/C=N/NC(=O)C2CC2)cc1OC	8%	19%	-4.2%	4	-0.5	25%	8
C=CCN(C(=O)c1csnn1)C(C(=O)NCc1ccccc1)c1ccccc1F (stereo not given)	-3%	?	.	-17	-0.5	2%	-9
Cc1cc(C)cc(NC(=O)C(c2ccccc2)N2CCN(CC(=O)NC3CC3)CC2)c1 (stereo not given)	-2%	3%	-0.5%	28	.	.	-9
Cc1nn(Cc2ccccc2Cl)c2sc(C(=O)Nc3nccs3)cc12	-14%	2%[15.4 µM]	1.0%	-11	8.1	6%	-10
COCc1cc(=O)[nH]c(N2CCN(C(=O)c3ccco3)CC2)n1	1%	23%	-0.9%	9	-2.4	12%	25
COc1ccc(CCNc2oc(COc3ccccc3Cl)nc2C#N)cc1OC	?	-110%	-0.4%	-8	5.2	5%	-3
O=C(CNc1cccc([N+](=O)[O-])c1)N1CCN(S(=O)(=O)c2ccc(Cl)cc2)CC1	-22%	12%[15.4 µM]	-1.6%	4	.	.	3
Cc1cc(C)nc(SCCCNCc2ccccc2)n1	0%	4%	-0.7%	-20	1.1	-6%	-8
CCCc1ccc(OCCNC(=O)C2CCCCC2)cc1	6%	2%	.	-4	6.4	?	24
CCc1ccc(NC(=O)c2cc(-c3ccco3)on2)cc1	10%	-33%[inhibitor]	66%	-5	?	-27%	4
CC(C)Cn1c2c(c(O)c(C(=O)Nc3ccc(F)cc3)c1=O)CCCC2	11%	-29%	-1.9%	1	-3.2	-6%	-3
Cc1ccc(OCC(O)Cn2nc(C)cc2C)cc1 (stereo not given)	5%	8%	-0.9%	.	-2.5	14%	10
O=C(c1cc(-c2ccccc2)nn1-c1ccccc1)N1CCN(S(=O)(=O)c2c(F)cccc2F)CC1	-8%	-14%	?	9	.	.	11
Cc1ccc(CNc2ncnc3c2cnn3-c2ccccc2)cc1	21%	0%	-30%	12	-0.5	-5%	0
CCN(C(=O)CCN1C(=O)/C(=C/c2ccccc2)SC1=S)C1CCS(=O)(=O)C1 (stereo not given)	28µM*	?	1.6%	15	.	3%	-6
O=C(NCCC(=O)N(CCc1ccccc1)Cc1ccccc1)c1ccc(Br)cc1	-2%	0%[15.4 µM]	0.7%	19	.	.	16
CCC1=[N+](CC(=O)c2ccc(C)cc2)CCn2c(C)ccc21	-3%	-8%	?	-13	11	-8%	4
COC(=O)CSc1nnc(CNC(=O)c2ccc(OC)cc2OC)n1C	2%	20%	0.0%	0	3.5	-10%	10
COc1ccc(C(=O)Nc2c(Cl)cc(Cl)cc2C(=O)N2CCOCC2)cc1	8%	?	-2.4%	2	-1.1	14%	-4
Cc1ccc(S(=O)(=O)N2CCN(C(=O)CN3C(=O)c4ccccc4C3=O)CC2)c(C)c1	2%	12%	1.1%	-2	.	.	5
CN(CC(=O)Nc1ccc(Cl)c(Cl)c1)C(=O)/C=C/c1ccc(F)cc1	-14%	-6%	-1.8%	11	3.3	7%	-3
Cc1ccc(S(=O)(=O)N2CCC(C(=O)OCC(=O)N(Cc3ccccc3)C(C)(C)C)CC2)cc1C	-13%	6%	-1.5%	8	.	.	2
CN(C(=O)c1cccc(NC(=O)Cc2ccc(NC(=O)C3CCN(C(=O)CCc4ccccc4)CC3)cc2)c1)C1CCCCC1	1%	.	0.5%	1	.	.	.
CCOC(=O)c1ccc(NC(=O)CSc2nc3ncccc3[nH]2)cc1	-22%	7%	-2.0%	-20	1.8	1%	2
O=S(=O)(Nc1ncnc2scc(-c3ccc(F)cc3)c12)c1cc(F)ccc1F	-28%	5%	-10%	5	3.4	23%	12
CCOC(=O)C1CN(S(=O)(=O)c2ccc(Cl)cc2)c2cc(S(=O)(=O)CC)ccc2O1 (stereo not given)	-3%	28%	.	50	-1.5	19%	-27
Cc1ccc(CCNC(=O)C2CCN(S(=O)(=O)c3cccc4cccnc34)CC2)cc1	-13%	-17%	-0.2%	-6	.	12%	1
CCCc1nc2ccccc2c(C(=O)OCC(=O)NC2CC2)c1CC	-7%	20%	-3.6%	11	.	.	.
Cc1cc(C)c2nc(N(CCCN(C)C)C(=O)c3ccc4c(c3)OCCO4)sc2c1	9%	-36%[15.4 µM]	.	17	.	.	-3
CCOC(=O)c1cc(NC(=O)c2ccc(OC)cc2)c(=O)oc1-c1ccccc1	-12%	0%	0.1%	-5	5.7	-11%	-7
NNC(=O)c1oc2nc(-c3ccco3)cc(-c3ccco3)c2c1N	?	-6%[15.4 µM]	-0.3%	31	?	-8%	-6
Cc1ccc(N=Cc2c(O)ccc3ccccc23)cc1F	9%	2%	-7.4%	15	?	-17%	-2
Cc1nnc(SCc2ccc([N+](=O)[O-])cc2)[nH]c1=O	-18%	13%[15.4 µM]	.	-1	-0.1	4%	8
Cc1ccc(NC(=O)c2oc3c(c2C)C(=O)CC(C)(C)C3)cc1	-4%	-1%	-0.8%	-7	4.5	14%	6
NC(=O)CNC(=O)[C@@H]1CC2(CC(c3ccccc3)=NO2)CN1C(=O)c1ccc(Br)cc1 (stereo not given in full)	9%	-4%	0.7%	-9	-1.5	3%	8
COc1ccc(CCNC(=O)COC(=O)Cc2c[nH]c3ccccc23)cc1OC	-6%	18%[15.4 µM]	0.9%	35	.	.	.

Grouped by structure: the entries above with a Cl atom.
SMILES	gsp antagonist	gsp ag	ClpP mod	TRPML1 blocker	Menin MLL FP FL	Sfp PPTase inh	TRPV1 potentiator
CCC(=O)NC(=S)Nc1cccc(Cl)c1N1CCCCC1	12%	5%	0.8%	5	7.2	11%	17
Cc1nn(Cc2ccccc2Cl)c2sc(C(=O)Nc3nccs3)cc12	-14%	2%[15.4 µM]	1.0%	-11	8.1	6%	-10
COc1ccc(CCNc2oc(COc3ccccc3Cl)nc2C#N)cc1OC	?	-110%	-0.4%	-8	5.2	5%	-3
O=C(CNc1cccc([N+](=O)[O-])c1)N1CCN(S(=O)(=O)c2ccc(Cl)cc2)CC1	-22%	12%[15.4 µM]	-1.6%	4	.	.	3
COc1ccc(C(=O)Nc2c(Cl)cc(Cl)cc2C(=O)N2CCOCC2)cc1	8%	?	-2.4%	2	-1.1	14%	-4
CN(CC(=O)Nc1ccc(Cl)c(Cl)c1)C(=O)/C=C/c1ccc(F)cc1	-14%	-6%	-1.8%	11	3.3	7%	-3
CCOC(=O)C1CN(S(=O)(=O)c2ccc(Cl)cc2)c2cc(S(=O)(=O)CC)ccc2O1 (stereo not given)	-3%	28%	.	50	-1.5	19%	-27

Next part
SMILES	gsp antagonist	gsp ag	ClpP mod	TRPML1 blocker	Menin MLL FP FL	Sfp PPTase inh	TRPV1 potentiator
Cc1cc(-c2ccc(N3CCOCC3)cc2)nc2ccccc12	-22%	29%	?	6	-11	?	15
N#CC1=C2N=C(N)c3ccccc3N2C2=C(C(=O)CCC2)C1c1cccc(Cl)c1 (stereo not given)	-18%	-16%	-3.6%	8	-1.9	-12%	4
CCCCSc1nn[nH]n1	0%	-5%	-1.7%	33	7.2	7%	-7
O=C(COC(=O)/C=C/c1cn(-c2ccccc2)nc1-c1ccc2c(c1)OCCO2)NC1CCS(=O)(=O)C1 (stereo not given)	-21%	-16%	3.5%	18	-0.3	-4%	12
